HNF4A DNA FP = change in binding of human HNF4A to DNA, primary screen, biochemical, fluorescence polarization, FITC-DNA. 1 h. AID 1224865, 2016. Hepatocyte nuclear factor 4-alpha (Homo sapiens), P41235. 0.3% of 360,000 active. activity change, % at 10 µM; in the data active = activity change above about 30%, passing the limit was not always enough;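 also: controls were the assay level and a saturating level of protein; the project sought stronger binding though the title names inhibitors; some compounds called inactive have numbers as strong as hits; positive values seem to mean higher polarization but the record does not say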
Target sequence (P41235 whole entry, looked up): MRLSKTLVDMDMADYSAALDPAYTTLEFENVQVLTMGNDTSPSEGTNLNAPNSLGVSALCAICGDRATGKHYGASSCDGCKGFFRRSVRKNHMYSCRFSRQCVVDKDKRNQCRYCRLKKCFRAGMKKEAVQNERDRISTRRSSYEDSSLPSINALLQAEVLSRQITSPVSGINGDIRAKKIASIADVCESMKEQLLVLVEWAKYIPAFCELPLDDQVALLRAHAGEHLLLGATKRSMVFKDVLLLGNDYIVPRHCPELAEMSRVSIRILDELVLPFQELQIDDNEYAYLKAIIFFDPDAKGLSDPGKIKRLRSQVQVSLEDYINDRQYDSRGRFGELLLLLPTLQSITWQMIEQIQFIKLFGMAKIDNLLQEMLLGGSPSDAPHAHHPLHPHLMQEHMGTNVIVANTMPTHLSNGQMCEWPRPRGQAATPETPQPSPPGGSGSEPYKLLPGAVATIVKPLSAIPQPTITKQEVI
Vif A3G = inhibitors of Vif binding to APOBEC3G peptide, primary screen, biochemical, TR-FRET, GST-Vif 1-94, biotin-A3G peptide, dose response retest (AID 1117319); TR-FRET GST-Vif / biotin-A3G peptide binding; higher % means a stronger effect; test concentration not given here; strong numbers were not always called active; 0.57% of 260,000 active; inhibition, %, or IC50 in µM where a hit was titrated;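 active = above the screen mean plus three standard deviations and confirmed in dose response; inconclusive = results disagree or hit not tested in dose response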;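 also: Vif residues 1-94 fused to GST binding biotinylated APOBEC3G peptide 110-148; 0% = full assay without inhibitor and 100% = GST in place of GST-Vif; retest series ran down from 100 µM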
E coli growth = E. coli growth inhibition, primary screen, OD600. Escherichia coli growth, 23 h; hits give low values. OD600 absorbance (no concentration beside the values). 0.21% of 330,000 active;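 active = OD600 absorbance below the run mean of sample wells minus 3.6 SD, in any replicate, cut at about 0.56 in these data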;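 also: stock transfer was 300 nL into about 60 µL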
MLL AF4-AF9 inh = inhibitors of AF4 peptide binding to AF9, primary screen, biochemical, AlphaScreen, biotin-AF4 peptide, FLAG-AF9, single point | AID 651704, 2012 | inhibition, % at 10 µM | 0.47% of 350,000 active | Protein AF-9 (Homo sapiens), P42568;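 active = every replicate reaching a set inhibition limit, whatever the replicate mean, cut at about 25% in these data; inconclusive = mean inhibition reaches that limit but some replicates miss it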;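 also: 0% = plate neutral control median and 100% = total signal loss; the record names both 10 and 1 µM as test concentration; the first replicate is given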
Target sequence (P42568 whole entry, looked up): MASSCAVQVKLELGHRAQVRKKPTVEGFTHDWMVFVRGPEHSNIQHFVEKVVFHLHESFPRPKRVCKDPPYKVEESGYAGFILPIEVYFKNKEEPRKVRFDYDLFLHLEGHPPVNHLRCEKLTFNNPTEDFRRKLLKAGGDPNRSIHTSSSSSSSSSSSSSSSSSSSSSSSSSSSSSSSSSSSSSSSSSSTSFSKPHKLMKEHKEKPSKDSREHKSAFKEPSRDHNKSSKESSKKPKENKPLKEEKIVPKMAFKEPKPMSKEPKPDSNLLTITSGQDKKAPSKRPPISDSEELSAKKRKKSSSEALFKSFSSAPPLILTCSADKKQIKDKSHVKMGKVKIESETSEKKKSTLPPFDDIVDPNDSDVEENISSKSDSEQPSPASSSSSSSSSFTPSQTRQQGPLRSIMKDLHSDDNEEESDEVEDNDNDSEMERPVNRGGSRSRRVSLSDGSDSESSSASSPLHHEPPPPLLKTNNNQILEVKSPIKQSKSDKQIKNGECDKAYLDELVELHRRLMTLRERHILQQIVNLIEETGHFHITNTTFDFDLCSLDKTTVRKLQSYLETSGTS
RanGTP-Imp inh = inhibitors of RanGTP-importin-beta interaction, primary screen, biochemical, FRET, CFP-Ran, YFP-importin-beta, homogeneous. Ran GTPase (GTP-bound) - importin-beta complex. cell-free CFP-Ran/YFP-importin-beta FRET ratio. inhibition, % (test concentration not listed). 1.1% of 300,000 active. AID 2216, 2009;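 active = most replicates above 15%; inconclusive = exactly half above 15%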;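 also: 0% = DMSO wells and 100% = Ran loaded with GDP instead of GTP; wells of about 40 µL received 100 nL stock; the first replicate is given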
FGF22 binding = binders of human FGF22 protein, primary screen, FGF22 synaptogenesis inhibitor project, biophysical, thermal shift, single point. calls only at 9.99 µM. Fibroblast growth factor 22 (Homo sapiens), Q9HCT0. 1.5% of 340,000 active. AID 651658, 2012. recombinant FGF22 thermal shift, SYPRO orange fluorescence; percent of sucrose octasulfate shift, DMSO zero;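 active = melting point raised past a set limit in the mean and every replicate; inconclusive = no clear call; three in four hits are not shown here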
UCH37 DUB inh = inhibitors of human UCH37 deubiquitinase, primary screen, biochemical, Ub-AMC cleavage, fluorescence. Ubiquitin carboxyl-terminal hydrolase isozyme L5 (Homo sapiens), Q9Y5K5. purified proteasome/UCH37. inhibition, % (no concentration beside the values). 0.33% of 330,000 active. AID 588478, 2011;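 active = mean of two replicates above 20%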;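 also: 0% = compound-free wells with enzyme and 100% = wells lacking proteasome; stock transfer was 100 nL into about 20 µL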
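Schedule: 30 min plus 25 min, room temperature / Material: human UCH37 within purified proteasomes / Technique: AMC fluorescence intensity at 355/460 nm / Buffer or medium: pH 7.4 Tris-HCl (50 mM) with ovalbumin, ATP-MgCl2, DTT / Controls: wells without proteasome as full block, compound-free enzyme plus substrate as uninhibited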
* hit, by the source's call; i = inactive; ? = inconclusive; · = no result given.

Screens in order – FGF22 binding	Vif A3G	RanGTP-Imp inh	UCH37 DUB inh	MLL AF4-AF9 inh	E coli growth	HNF4A DNA FP
CCOC(=O)CCCn1nc(C)n2c(cc3sccc32)c1=O
  ·	-8.1%	5.0	5.3	·	0.681	-1.0
O=C(N/N=C/c1ccncc1)c1ccncc1
  i	-2.0%	·	·	-3.0	·	-4.9
CCN1C[C@@H]2[C@@H]3C(=O)N(Cc4ccccc4)C(=O)[C@@H]3[C@](CC)(C(=O)OC)N2C1=NC
  ·	-3.9%	·	0.3	-1.0	0.704	1.0
CC(=O)NC(CC(=O)Nc1ccc(S(=O)(=O)N2CCOCC2)cc1)c1ccccc1 (stereo not drawn)
  i	·	·	-2.1	-3.1	0.694	-0.3
O=C(NC1(C(F)(F)F)NC(=O)N(Cc2cccnc2)C1=O)c1ccccc1 (stereo not drawn)
  ·	29.5%	-0.4	5.0	·	0.721	-3.1
CC(C)c1ccc(NC(=O)C(c2ccccc2)N2CC(=O)Nc3ccccc32)cc1 (stereo not drawn)
  i	-2.7%	1.6	·	1.0	·	-1.3
CC1CCC(NC(=O)C2CCN(C(=O)NC3CCCCC3)CC2)CC1 (stereo not drawn)
  ·	24.8%	-1.5	4.1	·	0.691	·
COC(=O)COc1ccc(S(=O)(=O)NCc2ccc3c(c2)OCO3)cc1
  i	-4.1%	-1.3	-1.4	1.9	0.653	-3.0
COC(=O)C1=C(C)N(C)C(=O)NC1c1ccc(C)cc1 (stereo not drawn)
  i	-3.6%	-2.9	2.4	-31.2	0.667	0.1
Cc1cccn2c(=O)c(/C=C(\C#N)C(=O)NCc3ccco3)c(N3CCOCC3)nc12
  i	·	3.4	5.6	0.5	0.639	0.1
COCCN(C(=O)Nc1ccc(OC)cc1OC)C1CCN(C(C)C)CC1
  i	1.2%	0.0	0.4	3.0	0.636	1.2
COCCn1c(Cc2ccccc2)nnc1SCC(=O)N1CCCC1=O
  i	0.3%	·	1.6	-3.9	0.662	0.3
O=C(CCNS(=O)(=O)c1ccc(Br)cc1)NC1CCN(Cc2ccccc2)CC1
  i	·	4.2	5.6	0.2	0.69	-1.9
CC(C)N(C(=O)CS(=O)(=O)c1ccc(Cl)c(Cl)c1)C(C)C
  i	10.0%	?	4.6	2.1	0.666	2.4
CCCCN(C)C(=O)c1sc(=O)n(Cc2cc(Cl)ccc2OC)c1C
  i	·	·	·	-1.9	·	-0.8
COc1cc(-c2noc(-c3cccc(Cl)c3)n2)cc(OC)c1OC
  ·	-7.3%	1.2	2.1	·	0.715	-2.1
COc1ccc(N2CCN(C(=O)CSc3nnc(-c4cccnc4)n3-c3ccccc3)CC2)cc1
  ·	14.5%	-1.9	0.9	·	0.758	-1.3
N#CC1=C(N)Nc2ncnn2C1c1ccc(F)cc1 (stereo not drawn)
  i	·	-1.9	5.1	2.7	0.671	-0.6
Cc1ccnc2c(N3C(=O)C4C5c6ccccc6C(c6ccccc65)C4C3=O)cccc12 (stereo not drawn)
  ·	-9.3%	?	5.5	·	0.734	-3.0
COc1cccc(CNC(=O)[C@@H]2CCCN2C(=O)[C@@H]2CCCN2C(=O)OC(C)(C)C)c1
  i	·	·	·	-4.2	·	-0.4
Cc1ccc(S(=O)(=O)Nc2ccncc2)c(C)c1N(C)S(=O)(=O)c1ccc(F)cc1
  ·	12.5%	2.6	4.7	·	0.727	0.5
O=C(NCc1ccccc1)c1nc[nH]c1C(=O)N1CCN(c2ccccc2)CC1
  i	·	·	-0.3	2.6	0.672	-5.4
COc1ccc(CNC(=O)CS(=O)Cc2nc(-c3ccccc3C)oc2C)cc1 (stereo not drawn)
  i	9.0%	2.6	1.6	0.6	0.753	2.7
CN(C)c1ccc(N=Nc2ccc(C(=O)O)cc2)cc1
  i	24.1%	9.7	18.8	0.8	0.664	-18.5
O=C(C1=C[C@H](C2CC2)C[C@H](OCc2ccc(CO)cc2)O1)N1CCN(Cc2ccccc2)CC1
  i	-9.2%	0.0	5.8	7.8	·	3.4
CC(C)(C)c1ccc(C(=O)NCc2nnc(SCC(=O)NCC3CCCO3)o2)cc1 (stereo not drawn)
  i	-4.2%	0.7	1.8	-1.3	0.692	-1.3
C/C(CCC(C)C)=N\Nc1cc(C)c2ccccc2n1
  i	1.9%	2.9	·	8.5	·	4.0
CNC(=S)N(C1=NCC(c2ccc([N+](=O)[O-])cc2)S1)c1ccccc1 (stereo not drawn)
  i	·	1.0	4.7	-1.4	0.704	1.6
CCOC(=O)C1CCN(CCC(=O)Nc2ccc(Br)cc2)CC1
  i	-6.4%	1.9	2.1	-1.5	0.655	2.1
COC(=O)C1C(=O)c2c([nH]c(C(=O)OC3CCCCC3)c2C)CC1C (stereo not drawn)
  i	0.6%	-0.8	0.5	1.6	0.783	3.6
CCN1C(=O)[C@H]2[C@@H](c3ccc(C)cc3)N[C@]3(CCCN(Cc4cccn4C)C3=O)[C@H]2C1=O
  i	·	·	·	1.7	·	-0.3
CN(C)C(CNC(=O)c1cc(S(=O)(=O)N(C)c2ccc(F)cc2)ccc1Cl)c1cccs1 (stereo not drawn)
  i	·	·	0.8	5.6	0.671	-2.7
COc1cccc(NC(=O)COC(=O)CNS(=O)(=O)c2c(F)cccc2F)c1
  i	·	8.7	-1.5	-2.5	0.709	-1.3
COCCn1c(SCc2ccc(F)cc2)nc2c1c(=O)[nH]c(=O)n2C
  i	-7.9%	-0.1	6.2	6.7	0.649	-0.3
CC12CCC(=O)N1C(C(=O)Nc1nc(-c3ccc(F)c(F)c3)cs1)CS2 (stereo not drawn)
  i	-2.8%	-0.7	1.2	7.0	0.649	5.5
O=[N+]([O-])c1ccc(N2CCOCC2)cc1N1CCCCC1
  i	1.6%	4.2	7.4	7.6	0.621	9.3
CCn1c2ccccc2c2cc(NC(=O)C(C)Oc3ccccc3)ccc21 (stereo not drawn)
  i	7.0%	?	-5.8	3.6	0.702	4.7
Cc1cc(C)c(NS(=O)(=O)c2ccccc2)c(C)c1NS(=O)(=O)c1ccccc1
  i	-4.8%	·	-0.4	4.5	0.648	0.0
CC(=O)c1ccc(C(=O)N2CCCC(Nc3ccccc3)C2)s1 (stereo not drawn)
  i	-9.4%	4.2	4.8	0.0	0.731	-3.0
O=C(COC(=O)C1(c2ccc(F)cc2)CCCC1)NCc1ccco1
  i	?	-3.3	2.1	0.5	0.74	-4.7
Cc1nc2nc(C)c(CCC(=O)N3CCN(c4ccccn4)CC3)c(C)n2n1
  ·	8.3%	-3.0	0.9	·	0.682	-3.4
O=C(NCCN1CCN(c2cccc(Cl)c2)CC1)Nc1ccccc1
  i	2.6%	-1.7	1.5	1.3	0.63	0.2
O=C1Nc2ccccc2-c2nnnn2C1N1CCC(Cc2ccccc2)CC1 (stereo not drawn)
  i	·	·	·	-0.7	·	0.1
O=C(CNC(=O)c1ccc(Br)o1)NCC1COc2ccccc2O1 (stereo not drawn)
  i	·	·	0.3	0.2	0.657	-2.0
CCCNC(=O)c1cc(C2CCCCN2C(=O)c2cc(F)ccc2C)on1 (stereo not drawn)
  i	·	·	·	-0.3	·	-1.3
Cc1cc(N)nc(=O)n1C1CC(O)C(CO)O1 (stereo not drawn)
  i	3.3%	·	·	-2.8	·	-0.3
N[C@@H](Cc1ccccc1)c1nnc(SCc2ccccc2Cl)o1
  ·	1.4%	2.1	5.1	·	0.654	-0.1
Cn1c(SCC(N)=O)nnc1C1CCN(C(=O)NC2CCCCC2)CC1
  ·	24.2%	-2.9	-2.0	·	0.733	-3.2
CSC(=Nc1ccccc1)Nc1ccccc1
  i	4.2%	0.9	2.1	-2.1	0.687	5.4
N#Cc1c(SCC(=O)O)nc(N2CCOCC2)c2c1CCCC2
  i	16.6%	?	4.7	-1.4	0.648	-1.1
O=C(Nc1cccc(F)c1)C1CCN(C(=O)c2ccco2)CC1
  i	1.2%	3.8	-0.1	-3.5	0.635	3.0
Cc1ccc(C(C)C)c(OCc2nn(CC(=O)c3ccc(OC(F)F)cc3)c3[n+]2CCCCC3)c1
  ·	·	6.2	1.7	·	0.555	0.1
C/C(=N\NC(=O)CN1CCN(c2ccc(F)cc2)CC1)c1ccco1
  i	·	0.6	·	-0.7	·	-1.8
Cc1[nH]c2ccccc2c1CCN(Cc1cccnc1)C(=S)Nc1cccc(F)c1
  i	2.5%	-2.1	1.9	10.7	0.658	2.9
Cc1ccc(C)c(CSc2nnc([C@@H]3CCCN3)o2)c1
  i	2.7%	5.9	1.2	1.1	0.664	-2.3
CCc1cc2ccc(C)cc2nc1SCC(=O)Nc1cc(C)on1
  i	1.5%	7.5	3.5	-0.6	0.708	-0.4
CCOC(=O)CN1C(=O)N[C@@H](c2cccs2)C(C(=O)OC)=C1C
  i	·	7.6	6.0	1.2	·	-1.7
O=C(NCC1CC1)c1cccc2c(-c3ccc(F)c(F)c3)coc12
  i	·	·	·	1.1	·	0.0
CCN=C(Nc1ccc2c(c1)OCO2)SC1CC(=O)N(c2ccc(OC)cc2)C1=O (stereo not drawn)
  ·	4.6%	-0.1	3.0	·	0.672	2.3
N#C/C(C(=O)N1CCCC1)=C1/N=C(N)c2ccccc21
  i	-9.1%	-1.2	7.9	0.8	0.592	0.7

Reprinted from the part before: 2 entries, followed by the next part.
Screens in order – FGF22 binding	Vif A3G	RanGTP-Imp inh	UCH37 DUB inh	MLL AF4-AF9 inh	E coli growth	HNF4A DNA FP
CCN=C(Nc1ccc2c(c1)OCO2)SC1CC(=O)N(c2ccc(OC)cc2)C1=O (stereo not drawn)
  ·	4.6%	-0.1	3.0	·	0.672	2.3
N#C/C(C(=O)N1CCCC1)=C1/N=C(N)c2ccccc21
  i	-9.1%	-1.2	7.9	0.8	0.592	0.7
Cn1c(SCCOc2ccccc2Cl)nnc1-c1cccs1
  ·	-4.7%	-0.7	2.3	·	0.731	-1.3
Cc1ccc2nc(SC(C)C(=O)NCc3ccco3)[nH]c2c1 (stereo not drawn)
  ·	27.6%	1.3	4.4	·	0.684	-1.9
CC(=O)Nc1ccc(NC(=O)CCc2ccc(C)o2)cc1
  i	3.1%	2.2	-0.6	-0.2	0.703	2.7
COc1cc(C2NC(=S)NC(c3ccccc3)=C2C(C)=O)cc(Cl)c1OCC(=O)O (stereo not drawn)
  i	?	?	5.8	9.7	0.735	0.4
Cc1ccc(C)c(N2CCN(C(=O)CCc3nc(-c4ccccc4C(F)(F)F)no3)CC2)c1
  i	·	·	1.9	-2.4	0.695	2.5
CCOC(=O)c1nc(C)n(-c2cc(Cl)cc(Cl)c2)n1
  ·	-2.2%	-0.7	1.9	·	0.62	-3.3
COc1cc(CCC(=O)N2CC(C)OC(C)C2)cc(OC)c1OC (stereo not drawn)
  i	-1.7%	2.1	5.2	-2.3	0.734	-4.8
Cc1ccc(NC(=O)c2cccc(N3C(=O)C4C5C=CC(C5)C4C3=O)c2)cc1C (stereo not drawn)
  i	6.1%	5.9	1.8	-4.1	0.681	3.6
CC1CN(c2ncc(/C=N/NC(=O)c3ccccc3O)s2)CC(C)O1 (stereo not drawn)
  i	-1.1%	3.6	·	4.9	·	-1.1

Some of the compounds tested (hit frequency here may not be typical).
